# RecA splice inh: inhibitors of M. tuberculosis RecA intein splicing. P9WHJ3. actives 0.75% (n = 290,000). inhibition, %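 (about 9 µM by stock and volumes)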. cell-free RecA intein splicing, fluorescence; in the data active means inhibition above about 30%;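 further: 0% = vehicle wells and 100% = reference inhibitor control wells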
# Target sequence (P9WHJ3 whole entry, looked up, canonical isoform): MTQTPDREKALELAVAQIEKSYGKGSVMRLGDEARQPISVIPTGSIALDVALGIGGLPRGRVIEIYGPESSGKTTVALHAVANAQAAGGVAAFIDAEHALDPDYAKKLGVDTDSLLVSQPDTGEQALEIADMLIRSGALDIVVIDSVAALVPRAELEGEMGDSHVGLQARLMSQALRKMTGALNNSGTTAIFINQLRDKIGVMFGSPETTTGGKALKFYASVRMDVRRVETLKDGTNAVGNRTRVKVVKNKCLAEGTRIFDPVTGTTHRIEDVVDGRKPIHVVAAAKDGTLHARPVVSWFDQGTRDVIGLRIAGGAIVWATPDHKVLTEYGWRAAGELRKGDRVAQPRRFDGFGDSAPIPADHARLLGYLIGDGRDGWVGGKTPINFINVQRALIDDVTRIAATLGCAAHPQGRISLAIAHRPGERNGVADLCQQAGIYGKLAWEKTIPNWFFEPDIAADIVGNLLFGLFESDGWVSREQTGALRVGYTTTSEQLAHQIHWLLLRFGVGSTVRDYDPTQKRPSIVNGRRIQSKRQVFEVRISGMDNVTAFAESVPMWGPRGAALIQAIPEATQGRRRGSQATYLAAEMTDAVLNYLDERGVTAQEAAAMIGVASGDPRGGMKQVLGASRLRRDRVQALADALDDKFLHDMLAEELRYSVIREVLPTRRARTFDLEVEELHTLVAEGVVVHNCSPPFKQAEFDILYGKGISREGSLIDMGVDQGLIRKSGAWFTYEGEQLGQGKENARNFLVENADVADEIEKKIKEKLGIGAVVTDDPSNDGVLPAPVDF
# Arbovirus anti: blocks arbovirus infection. arbovirus infection cell-based antiviral screen. inhibition, % at 10 µM. actives 0.37% (n = 200,000);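 active means inhibition from about 30%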;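 further: bluetongue infection of BSR cells; cell survival read as ATP light after 72 h; 0% = infected wells without compound and 100% = uninfected wells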
# Mtb betalactam: beta-lactam sensitization of Mtb H37Rv. M. tuberculosis H37Rv growth with meropenem, percent inhibition; hits of this screen are not shown here. inhibition, % at 25 µM. actives 0.27% (n = 330,000);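 active means about 74% or more and at least 40 points above the plate without the antibiotic, then above 30% in a dose series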;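 further: growth measured after seven days incubation then overnight dye step; 0% = bacteria only wells and 100% = bacteria with antibiotic; twin plates without the antibiotic show which effects depend on it; some results filed as inactive read as strong as hits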
# Mtb growth: M. tuberculosis H37Rv growth inhibitors, H37Rv strain (AID 1626) | M. tuberculosis H37Rv growth inhibition; higher % means a stronger effect | one-dose inhibition, % at 10 µM; IC50 in µM for titrated hits | actives 0.95% (n = 220,000);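 active means confirmed in a dose series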;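 further: bacteria incubated seven days before Alamar blue readout; 0% = bacteria only wells and 100% = bacteria with antibiotic wells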
# YopH inh: inhibitors of Yersinia enterocolitica YopH tyrosine phosphatase | fluorescence Ex485/Em525 | inhibition, %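 (about 10 µM by stock and volumes)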 | actives 0.16% (n = 140,000);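 active means inhibition of 50% or more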;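 further: controls were vehicle for no effect and minimum signal wells for full effect; inactives centre near -20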
# Arbovirus anti repeat: recorded beside Arbovirus anti, whose call it bears; inhibition, %; measured here: 10K subset replicate screen; many hits read low in the repeat;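 first of two repeat runs on a subset; 0% = infected and 100% = uninfected wells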
# * = called active by the depositor; x = not tested or not shown; & = joins results of further samples. An excerpt, so the mix of outcomes need not match the whole.
SMILES,RecA splice inh,Arbovirus anti,Mtb betalactam,Mtb growth,YopH inh,others
O=C(COC(=O)COc1ccc(Cl)cc1)Nc1ccc(N2CCOCC2)cc1,x,-1,-5,3%,x,
N#C/C(=C\c1cccnc1)C(=O)Nc1ccc(C(=O)O)cc1,0.8,9,-8,-9%,x,
CCc1cccc(CC)c1NC(=S)Nc1cccc(Cl)c1Cl,7.3,x,-3,2%,x,
C=C1c2ccc(C)cc2NC(=O)N1c1ccccc1,2.8,5,-16,3%,-22,Arbovirus anti repeat=-4
Fc1ccc(CSc2nnc3ccccn23)c(Cl)c1,3.4,3,-7,4%,x,
COC(=O)c1ccc(NC(=O)c2ccco2)cc1,x,4,7,-10%,-30,
Cc1ccc(NC(=O)C(NC2CCCC2)c2ccccc2)cc1Cl (centres undefined),3.1,-16,4,13%,x,
CC(=O)Nc1ccc(NC(=O)c2cc(=O)c3cc(C)cc(C)c3o2)cc1,-1.7,x,8,x,x,
CN(C1=C(NC(=O)c2ccccc2)C(=O)c2ccccc2C1=O)C1CCS(=O)(=O)C1 (centres undefined),93*,-29,8,4%,65*,
CCOC(=O)N1CCC(NS(=O)(=O)c2ccc(NC(C)=O)c(Cl)c2)CC1,x,x,-5,-16%,x,
CCCN1CCN(CCCNC(=O)CN2C(=O)C(CC)Oc3ccccc32)CC1 (centres undefined),-2.7,x,4,x,x,
COc1ccc(OC)c(S(=O)(=O)NCCCN2CCCC2=O)c1,0.5,x,-2,x,x,
CC(Cl)C(=O)NNC(=O)CNS(=O)(=O)c1ccccc1 (centres undefined),0.0,8,2,14%,x,
CC(O)(CS(=O)(=O)c1ccc(F)cc1)C(=O)Nc1ccc(C#N)c(C(F)(F)F)c1 (centres undefined),2.1,6,-6,0%&-3%,x,
Cc1cccc(NC(=O)COc2ccc(/C=C\c3[nH]c(=O)[nH]c(=O)c3[N+](=O)[O-])cc2)c1,5.0,15,5,-3%,x,
Cc1ccc2nc(C)cc(N3CCOCC3)c2c1,0.4,6,-7,4%,9,
CN(C)C(=S)NC1(C)CCS(=O)(=O)C1 (centres undefined),7.4,1,6,2%,-15,
O=C(Nc1ccc(S(=O)(=O)Nc2ccccn2)cc1)c1cccc(Br)c1,1.2,x,1,x,x,
O=C(Nc1cccc(S(=O)(=O)N2CCCCC2)c1)c1ccc2c(=O)n3c(nc2c1)CCCCC3,8.2,-3,49,20%,-30,
O=C(NCC1CCCO1)/C(=C/c1ccc(Cl)cc1)NC(=O)c1ccccc1 (centres undefined),0.9,3,-1,1%,-11,
COc1ccc(C(=O)Nc2ccc(NC(=O)c3ccco3)cc2)cc1,0.7,x,4,x,x,
Cc1ccccc1N1CCN(C(=O)CCN2C(=O)c3ccccc3C2=O)CC1,2.7,4,1,-8%,-27,
CCN(C(=O)c1cc2ccccc2o1)C12CC3CC(CC(C3)C1)C2,1.9,12,3,1%,x,
COc1ccc(Cl)cc1S(=O)(=O)N1CCCC(C(=O)N2CCCC2)C1 (centres undefined),1.3,x,13,x,x,

# Arranged by formula weight (ascending): part of the list above
SMILES,RecA splice inh,Arbovirus anti,Mtb betalactam,Mtb growth,YopH inh,others
CN(C)C(=S)NC1(C)CCS(=O)(=O)C1 (centres undefined),7.4,1,6,2%,-15,
Cc1ccc2nc(C)cc(N3CCOCC3)c2c1,0.4,6,-7,4%,9,
COC(=O)c1ccc(NC(=O)c2ccco2)cc1,x,4,7,-10%,-30,
Fc1ccc(CSc2nnc3ccccn23)c(Cl)c1,3.4,3,-7,4%,x,
CC(Cl)C(=O)NNC(=O)CNS(=O)(=O)c1ccccc1 (centres undefined),0.0,8,2,14%,x,
CCN(C(=O)c1cc2ccccc2o1)C12CC3CC(CC(C3)C1)C2,1.9,12,3,1%,x,
COc1ccc(OC)c(S(=O)(=O)NCCCN2CCCC2=O)c1,0.5,x,-2,x,x,
CC(=O)Nc1ccc(NC(=O)c2cc(=O)c3cc(C)cc(C)c3o2)cc1,-1.7,x,8,x,x,
Cc1ccccc1N1CCN(C(=O)CCN2C(=O)c3ccccc3C2=O)CC1,2.7,4,1,-8%,-27,
O=C(NCC1CCCO1)/C(=C/c1ccc(Cl)cc1)NC(=O)c1ccccc1 (centres undefined),0.9,3,-1,1%,-11,
CCOC(=O)N1CCC(NS(=O)(=O)c2ccc(NC(C)=O)c(Cl)c2)CC1,x,x,-5,-16%,x,
O=C(COC(=O)COc1ccc(Cl)cc1)Nc1ccc(N2CCOCC2)cc1,x,-1,-5,3%,x,
Cc1cccc(NC(=O)COc2ccc(/C=C\c3[nH]c(=O)[nH]c(=O)c3[N+](=O)[O-])cc2)c1,5.0,15,5,-3%,x,
O=C(Nc1ccc(S(=O)(=O)Nc2ccccn2)cc1)c1cccc(Br)c1,1.2,x,1,x,x,
O=C(Nc1cccc(S(=O)(=O)N2CCCCC2)c1)c1ccc2c(=O)n3c(nc2c1)CCCCC3,8.2,-3,49,20%,-30,

# Quoted from the entries so far (4 entries):
SMILES,RecA splice inh,Arbovirus anti,Mtb betalactam,Mtb growth,YopH inh,others
COc1ccc(C(=O)Nc2ccc(NC(=O)c3ccco3)cc2)cc1,0.7,x,4,x,x,
Cc1ccccc1N1CCN(C(=O)CCN2C(=O)c3ccccc3C2=O)CC1,2.7,4,1,-8%,-27,
CCN(C(=O)c1cc2ccccc2o1)C12CC3CC(CC(C3)C1)C2,1.9,12,3,1%,x,
COc1ccc(Cl)cc1S(=O)(=O)N1CCCC(C(=O)N2CCCC2)C1 (centres undefined),1.3,x,13,x,x,

# (further entries)
SMILES,RecA splice inh,Arbovirus anti,Mtb betalactam,Mtb growth,YopH inh,others
CCOC(=O)Cc1csc(SC(C)C(=O)Nc2ccc(NC(C)=O)cc2)n1 (centres undefined),1.3,1,0,-10%,-4,
COc1ccccc1NC(=O)c1cc(S(=O)(=O)N2CCCCCC2)ccc1F,0.5,x,-2,x,x,
CCCCN(C(=O)Cc1ccc(S(=O)(=O)N2CCOCC2)s1)c1ccccc1,1.2,x,-8,x,x,
N#C/C(=C\c1ccncc1)c1nc2ccccc2o1,28,x,-2,0%,x,
O=S(=O)(NCC(c1ccco1)N1CCN(c2ccccc2F)CC1)c1ccccc1 (centres undefined),0.7,19,0,-1%,-26,
CC(C)CCN1CCN(CCCn2cccn2)CC1CCO (centres undefined),-2.8,4,-7,7%,x,
O=C1OC(C(=O)O)Cc2ccccc21 (centres undefined),1.3,7,0,-1%,-20,
C/C(=N\NC(=S)Nc1c(C)cccc1C)c1ccc(OC(F)F)cc1,0.4,16,-5,8%,-14,
Cc1ccc(/C=N/c2sc3c(c2C#N)CCC3)s1,2.8,1,2,5%,2,Arbovirus anti repeat=-7
S=C(NC1CC1)N1CCc2ccccc2C1,-0.3,-3,9,-3%,x,
Nc1nonc1-c1noc(N2CCOCC2)n1,0.6,1,1,-9%,10,
Cc1ccc(S(=O)(=O)Nc2ccc3nc(N)sc3c2)cc1,4.3,0,-6,3%,3,Arbovirus anti repeat=13
Cc1cccn2c(/C=N/OCc3ccc(F)cc3)c(-c3ccc(Cl)cc3)nc12,-5.1,1,-6,1%,4,
O=C(Nc1ccc(C(=O)N2CCOCC2)cc1)Nc1cccc(Cl)c1,6.1,11,3,-6%,-23,
CC(NC(=O)Cc1ccccc1)c1ccccc1 (centres undefined),0.0,x,-7,x,x,
CCCCOC(=O)Nc1cc(OC)c(Cl)cc1OC,4.1,6,25,-7%,-37,
O=C(Cn1nc(-c2ccccc2F)ccc1=O)NCc1ccc2c(c1)OCO2,0.7,-8,-2,-1%,-37,
Cc1ccc(NC(=O)CSCC(=O)Nc2cc(Cl)ccc2N2CCOCC2)cc1,3.8,x,2,x,x,
COc1cc(/C=C2/C(=O)N(c3ccc(Br)cc3)N=C2C)cc([N+](=O)[O-])c1O,17,x,2,x,x,
Cc1nc2ccc(NC(=O)c3ccc(Cl)c(S(=O)(=O)N(C)c4ccccc4)c3)cc2s1,-2.5,-5,1,1%,-28,
COc1ccc(COC(=O)C2=C(C)NC(=O)NC2c2cc(Br)c(O)c(OC)c2)cc1 (centres undefined),7.4,x,-11,x,x,
COc1ccc(CNC(=O)c2ccc3c(c2)N(C)C(=O)CS3=O)cc1 (centres undefined),-0.5,5,-2,-3%,-27,Arbovirus anti repeat=1
Cc1cccc(NC(=O)CCCN2C(=O)C(c3ccccc3)Oc3cccnc32)c1C (centres undefined),0.4,x,1,x,x,
COc1ccc(Cl)cc1C(=O)Nc1ccc(NC(C)=O)cc1,-0.3,7,-8,1%,x,
CCCCOc1ccc(CNC(=O)NS(=O)(=O)c2ccc(OCC)cc2)cc1,2.9,7,-7,-9%,-10,
O=C(CC(=O)NCc1cccnc1)NCc1cccnc1,-1.9,6,-6,3%,-46,
CCN1CCN(c2cc(C)c3cc(NC(=S)N4CCC5(CC4)OCCO5)ccc3n2)CC1,-4.0,-17,-3,2%,x,
O=[N+]([O-])c1ccc(Cl)c(C[n+]2cccc3ccccc32)c1,-2.0,x,3,x,x,
Cc1ccnc(NS(=O)(=O)c2ccc(NC(=O)CN3C(=O)c4ccccc4S3(=O)=O)cc2)n1,1.2,x,-4,x,x,
COc1cccc(-n2c(C)nn(CCOc3ccccc3)c2=O)c1,-1.7,2,-11,5%,x,
O=C(CCN1CCN(c2ccccc2F)CC1)Nc1ccc(F)cc1,1.9,x,-1,x,x,
CC(C)C[C@H](NC(=O)OC(C)(C)C)C(=O)N1CCC(C(=O)N[C@@H](Cc2ccccc2)C(=O)O)CC1,x,5,-1,x,-7,
O=C(Nc1ccccc1[N+](=O)[O-])c1nc[nH]c1C(=O)NCCO,0.4,10,-5,-7%,-8,
CCn1c(-c2ccc[nH]c2=O)nc2ccccc21,-3.1,x,-5,x,x,
O=C(CCCn1c(=O)[nH]c2cc(Cl)ccc2c1=O)NC1CCCCCCC1,-0.8,-1,13,-7%,-18,
CCN(CC)CCNc1nc(-c2cccs2)c(CC(=O)O)s1,-2.4,6,-8,-1%,x,
COc1cc(-c2nnc(SC(C)C(=O)Nc3c(C)n(C)n(-c4ccccc4)c3=O)o2)cc(OC)c1OC (centres undefined),-0.1,7,-8,-3%,-4,
COc1ccc(N/C(N)=N/c2nc(C)cc(C)n2)c(OC)c1,-1.8,-7,-2,-1%,x,
Cn1c(=O)c(C(=O)NNC(=O)c2ccccc2F)c(O)c2ccccc21,1.3,x,89,x,x,
COc1ccccc1N1CCN(C(=O)CN2C(=O)c3ccccc3S2(=O)=O)CC1,0.2,x,6,-9%,x,
CCOC(=O)C(Cc1ccc(Cl)cc1Cl)c1ccno1 (centres undefined),6.6,-3,83,0%,x,
C=CCNC(=O)NC(=O)CSc1nnc(C(F)(F)F)n1C,1.9,-1,5,-5%,x,
O=C(NCC(O)c1ccccc1)c1cccs1 (centres undefined),-0.5,x,0,x,x,
COc1ccc(NC(=O)Nc2nnc(Cc3ccccc3)s2)cc1,0.1,x,4,x,x,
CCOC(=O)C(=CNc1cc(C)nn1C(C)(C)C)C(=O)OCC,1.4,10,10,-14%,-41,
O=C(CSc1nnc(Cn2nnc(-c3ccccc3)n2)n1-c1ccccc1)Nc1ccccc1,2.2,-3,-1,-10%,-23,
O=C(COc1ccccc1)Nc1ccccc1N1CCCCC1,3.1,-20,92,20%,-10,
Cc1ccc(S(=O)(=O)N(C)CC(=O)Nc2ccc3c(c2)OCO3)cc1,-1.4,x,-8,x,x,

# Source: PubChem BioAssay
